# A1 inhib – inducers of caspase activity in MEF A1-2A-BIM cells, primary screen, A1 inhibitor project, cell-based, CaspaseGlo luminescence; caspase activation, % (concentration not given with the values); caspase-Glo luminescence, 3 h; percent of clofoctol signal, DMSO as zero; 21,000 tested, 0.51% active; AID 2241, 2010;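 active means most replicate scores above 10, or exactly half above 10 with mean activity above 10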;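 further: effector caspase 3 and 7 activity cleaving a DEVD luciferin substrate; 50 nL library stock added to about 30 µL; numbers are from one replicate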
# BJeLR viab HTS – BJeLR cell viability loss, primary screen, luminescence, CellTiterGlo ATP; BJeLR fibroblasts viability, 48 h; HRASV12, hTERT and SV40 LT/ST transformed; viability loss activity score, % (concentration not given with the values); 30,000 tested, 0.64% active; in the data active means viability loss activity score above about 50%; about a fifth of its hits are not listed in these tables;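 further: higher score means fewer live cells and less ATP luminescence; stock transfer was 50 or 100 nL into about 30 µL; 0% = vehicle wells and 100% = a reference killing control; one replicate is shown; the record names a cut of 85%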
# Numbers without * were called inactive; / = not tested or not shown. This is a subset (hit frequency here may not be typical).
SMILES,A1 inhib,BJeLR viab HTS
C[C@H](CO)N1C[C@H](C)[C@H](CN(C)CC2CCCCC2)Oc2ccc(NS(=O)(=O)c3ccccc3)cc2C1=O,-0.1,-10
C[C@@H]1CN([C@H](C)CO)C(=O)c2cc(NC(=O)Nc3ccc(C(F)(F)F)cc3)ccc2O[C@@H]1CN(C)Cc1ccccc1,-0.6,0.3
CCCCC(=O)Oc1cc(-c2ccccc2)c2oc(=O)sc2c1,-1.1,-1.0
CNC[C@@H]1Oc2ccc(NC(=O)Nc3c(C)noc3C)cc2C(=O)N([C@H](C)CO)C[C@@H]1C,-0.2,14
CNC[C@H]1Oc2c(NS(=O)(=O)c3cn(C)cn3)cccc2C(=O)N([C@@H](C)CO)C[C@H]1C,/,1.7
C[C@@H]1CN([C@H](C)CO)C(=O)c2cc(NS(C)(=O)=O)ccc2O[C@H]1CN(C)Cc1ccc(C(=O)Nc2ccccc2N)cc1,/,-1.9
O=C(CSc1nc(-c2ccco2)cc(C(F)(F)F)n1)N(Cc1ccccc1)Cc1ccccc1,-0.6,2.5
C[C@@H]1CN([C@@H](C)CO)C(=O)c2cc(NC(=O)Nc3ccccc3)ccc2O[C@H]1CN(C)S(=O)(=O)c1cn(C)cn1,0.4,0.7
O=C(CSC(=S)N1CCSCC1)c1ccccc1,-5.7,-2.9
Cc1cc(C(=O)Nc2cccc3c2O[C@H](CN(C)C(=O)Nc2cccc4ccccc24)[C@@H](C)CN([C@@H](C)CO)C3=O)n(C)n1,/,0.7
COc1ccccc1CNC(=O)C1CCCN(S(=O)(=O)c2ccc(C)cc2)C1 (stereo unspecified),-0.2,3.7
CC(C)NC(=O)Nc1cccc2c1O[C@H](CN(C)Cc1ccc(-c3ccccc3)cc1)[C@@H](C)CN([C@@H](C)CO)C2=O,/,-1.8
CC(C)(C)c1cn(-c2ccc(F)cc2)c(=S)[nH]1,1.5,5.6
Cc1noc(C)c1NC(=O)N(C)C[C@H]1Oc2c(NS(=O)(=O)c3cccs3)cccc2C(=O)N([C@H](C)CO)C[C@H]1C,/,1.2
CSc1ccc(CCNC(=O)c2ccc3snnc3c2)cc1,-0.7,0.9
CC1=C(C(=O)Nc2ccccc2)C2(CCCCC2)C(C#N)=C(SCC(=O)Nc2nccs2)N1,0.2,1.2
C[C@@H]1CN([C@@H](C)CO)C(=O)c2cc(NC(=O)C3CC3)ccc2O[C@H]1CN(C)S(=O)(=O)c1ccccc1,-0.2,-0.7
COc1ccc(S(=O)(=O)Nc2ccc3c(c2)C(=O)N([C@@H](C)CO)C[C@@H](C)[C@H](CN(C)Cc2ccccc2)O3)cc1,-0.3,0.7
C[C@@H]1CN([C@H](C)CO)C(=O)c2cccc(NS(C)(=O)=O)c2O[C@@H]1CN(C)C(=O)Nc1cccc2ccccc12,/,-4.8
COc1ccc(Sc2cccs2)cc1,-1.6,-6.7

# Compounds shown so far that contain a halogen:
SMILES,A1 inhib,BJeLR viab HTS
C[C@@H]1CN([C@H](C)CO)C(=O)c2cc(NC(=O)Nc3ccc(C(F)(F)F)cc3)ccc2O[C@@H]1CN(C)Cc1ccccc1,-0.6,0.3
O=C(CSc1nc(-c2ccco2)cc(C(F)(F)F)n1)N(Cc1ccccc1)Cc1ccccc1,-0.6,2.5
CC(C)(C)c1cn(-c2ccc(F)cc2)c(=S)[nH]1,1.5,5.6

# Next section
SMILES,A1 inhib,BJeLR viab HTS
CNC[C@H]1Oc2c(NC(=O)c3cc(C)nn3C)cccc2C(=O)N([C@@H](C)CO)C[C@@H]1C,/,-9.5
Cn1nc(C(C)(C)C)cc1C(=O)NCc1ccc(-c2cccs2)cc1,-1.6,11
COc1c(O)cc(-c2oc3cc(O)cc(O)c3c(=O)c2O[C@@H]2O[C@@H](C)[C@H](OC(C)=O)[C@@H](O)[C@H]2O)cc1O,0.2,8.3
O=c1cc(-c2ccccc2)nc(SCCOc2ccccc2F)[nH]1,0.4,-1.3
CC(C)(C)c1ccc(-c2[nH]nc(NC(=O)c3ccccc3Cl)c2Br)cc1,-0.5,0.9
C[C@H]1CN([C@@H](C)CO)C(=O)c2cc(NS(=O)(=O)c3ccccc3)ccc2O[C@@H]1CN(C)C(=O)NC1CCCCC1,-0.5,-0.7
CCOc1ccc(/C=C2\CC/C(=C\c3ccc(OCC)cc3)C2=O)cc1,/,-1.7
CCc1ccc(/C=C2\CCc3ccccc3C2=O)cc1,/,3.1
O=C(c1ncoc1-c1ccccc1)N(Cc1ccccn1)Cc1ccccn1,-0.2,-1.4
CCOC(=O)N1CCC(NC(=O)c2ccc3c(c2)sc2nc(-c4ccc(OC)cc4)cn23)CC1,0.6,1.7
CCOC(=O)C1=C(N)c2ccccc2CC1(C)CC (stereo unspecified),/,-3.4
COc1ccc(NC(=O)N(C)C[C@H]2Oc3c(NS(=O)(=O)c4ccc(OC)cc4)cccc3C(=O)N([C@@H](C)CO)C[C@H]2C)cc1,/,4.6
Cc1ccc(C(C)C)c(OCCNC(=O)Nc2ccc(Br)cc2)c1,-0.4,8.0
N#CC(C#N)=C(Nc1ccccc1Cl)SCc1cccc(F)c1,-0.9,24
COC(=O)c1cc2oc3ccccc3c2n1Cc1nc(-c2ccccc2)oc1C,0.1,-1.2
COc1ccccc1N1CCN(CCCNC(=O)c2nnc(Cc3ccccc3Cl)o2)CC1,/,0.4
CC12CC(c3cc(Br)cc(Br)c3O1)C(C(=O)c1ccccc1)C(=O)N2 (stereo unspecified),-0.7,-2.1
O=C(NCc1ccc(S(=O)(=O)NCc2ccccc2)s1)c1ccccc1,0.2,-1.8
C=CC1=C(C(=O)O)N2C(=O)[C@@H](NC(=O)/C(=N\OCC(=O)O)c3csc(N)n3)[C@H]2SC1,0.8,2.9
COC(=O)c1ccc2nc[nH]c2c1,-0.2,-4.8

# By substructure, the compounds so far with a CF3 group (two)
SMILES,A1 inhib,BJeLR viab HTS
C[C@@H]1CN([C@H](C)CO)C(=O)c2cc(NC(=O)Nc3ccc(C(F)(F)F)cc3)ccc2O[C@@H]1CN(C)Cc1ccccc1,-0.6,0.3
O=C(CSc1nc(-c2ccco2)cc(C(F)(F)F)n1)N(Cc1ccccc1)Cc1ccccc1,-0.6,2.5

# (more compounds)
SMILES,A1 inhib,BJeLR viab HTS
Cc1cc(N2C(=O)c3c(c(C)n(C)c3C)C2C(=O)NC2CCC(C)CC2)ccc1Br (stereo unspecified),0.1,-0.9
C[C@@H]1CN([C@H](C)CO)C(=O)c2cc(N(C)C)ccc2O[C@@H]1CN(C)C(=O)Nc1cccc2ccccc12,0.0,5.9
C[C@H]1CN([C@@H](C)CO)C(=O)c2cc(NC(=O)CCCN(C)C)ccc2O[C@H]1CN(C)Cc1ccc(C(F)(F)F)cc1,0.0,4.4
C[C@H]1CN([C@@H](C)CO)C(=O)c2cc(NC(=O)Cn3cnnn3)ccc2O[C@@H]1CN(C)C(=O)Nc1ccc(C(F)(F)F)cc1,0.4,-1.0
C[C@H]1CN([C@@H](C)CO)C(=O)c2cccc(NC(=O)Nc3ccccc3)c2O[C@H]1CN(C)C(=O)Nc1ccc(F)cc1,/,5.4
CC(C)S(=O)(=O)c1csc(C(=O)NN)c1Cl,1.5,-2.9
C=CCn1c(SC)nnc1-c1ccc(OC)c(OC)c1,0.9,3.4
CC(C)(C)c1ccc(C(=O)Nc2cccc(-c3cn4cccnc4n3)c2)cc1,/,1.8
Cc1cc(Oc2ccc(=O)n(C)n2)nc(SCC(N)=O)n1,/,3.8
CN1C(=O)/C(=C\C=C\c2ccc(N(C)C)cc2)SC1=S,-3.5,7.3
C[C@H]1CN([C@@H](C)CO)C(=O)c2cccc(NS(=O)(=O)c3ccc(F)cc3)c2O[C@@H]1CN(C)C(=O)NC1CCCCC1,/,-1.1
COc1ccc(NC(=O)Nc2ccc3c(c2)C(=O)N([C@@H](C)CO)C[C@@H](C)[C@H](CN(C)S(=O)(=O)c2ccc(C)cc2)O3)cc1,-0.3,4.1
C[C@@H]1CN([C@@H](C)CO)C(=O)c2cc(NC(=O)Nc3ccc4c(c3)OCO4)ccc2O[C@H]1CN(C)S(=O)(=O)c1cccs1,-0.3,-4.4
CCC(C(=O)NC(C)C)n1c2ccccc2c2nc(=O)cc(C)n21 (stereo unspecified),0.2,0.2
C[C@@H]1CN([C@@H](C)CO)C(=O)c2cccc(NC(=O)c3nc4ccccc4s3)c2O[C@@H]1CN(C)C(=O)Nc1ccccc1,/,-3.4
C[C@H]1CN([C@@H](C)CO)C(=O)c2cc(NC(=O)Nc3ccc(C(F)(F)F)cc3)ccc2O[C@H]1CN(C)S(=O)(=O)c1ccc(Cl)cc1,0.2,-5.3
O=C(c1cnn2ccccc12)N1CCCc2ccccc21,-0.3,-5.1
Cc1ccc(CNC(=O)C2CC(=O)N(CCC(C)C)C2)cc1 (stereo unspecified),0.1,1.9
Cc1ccc(S(=O)(=O)Nc2ccc3c(c2)C(=O)N([C@H](C)CO)C[C@H](C)[C@H](CN(C)CC2CCCCC2)O3)cc1,0.1,2.9
CN(C)CCN(C(=O)c1ccc(Br)cc1)c1nc2ccc(Cl)cc2s1,-1.0,1.7

# Continued (three carried over from the part before).
SMILES,A1 inhib,BJeLR viab HTS
Cc1ccc(CNC(=O)C2CC(=O)N(CCC(C)C)C2)cc1 (stereo unspecified),0.1,1.9
Cc1ccc(S(=O)(=O)Nc2ccc3c(c2)C(=O)N([C@H](C)CO)C[C@H](C)[C@H](CN(C)CC2CCCCC2)O3)cc1,0.1,2.9
CN(C)CCN(C(=O)c1ccc(Br)cc1)c1nc2ccc(Cl)cc2s1,-1.0,1.7
COc1ccc(S(=O)(=O)N(C)C[C@@H]2Oc3c(NC(=O)Nc4ccc(F)cc4)cccc3C(=O)N([C@@H](C)CO)C[C@@H]2C)cc1,/,-4.9
C[C@H]1CN([C@@H](C)CO)C(=O)c2cc(NC(=O)Nc3ccc(F)cc3)ccc2O[C@H]1CN(C)Cc1ccc(C(F)(F)F)cc1,-1.0,-2.0
C[C@@H]1CN([C@H](C)CO)C(=O)c2cccc(NC(=O)C3CC3)c2O[C@H]1CN(C)Cc1ccccc1,/,2.7
Cc1noc(C)c1S(=O)(=O)N(C)C[C@H]1Oc2c(cccc2N(C)C)C(=O)N([C@@H](C)CO)C[C@H]1C,/,-6.3
O=C(c1ccccc1)N1N=C(c2ccccc2)CC1c1ccc2nccnc2c1 (stereo unspecified),0.2,-3.0
CCOC(=O)c1cc(C(C)(C)C)n(-c2ccc(N3CCOCC3)cc2)c1C,-0.7,0.1
CCCCn1c2c(c3ccccc31)CCc1nonc1-2,-0.9,-3.1
C[C@@H]1CN([C@@H](C)CO)C(=O)c2cccc(NC(=O)C3CC3)c2O[C@H]1CN(C)S(=O)(=O)c1cn(C)cn1,/,-4.4
CCN(CC)S(=O)(=O)c1cccc(C(=O)O)c1,0.3,-5.4
FC(F)(F)c1ccnc(NCCNC(=S)NCc2ccco2)n1,/,1.6
CCCCn1c(CCCNC(=O)C(C)C)nc2ccccc21,2.0,-5.6
COc1ccc(S(=O)(=O)N(C)C[C@@H]2Oc3ccc(NC(=O)NC(C)C)cc3C(=O)N([C@H](C)CO)C[C@@H]2C)cc1,0.2,-2.0
CC(C)NC(=O)Nc1cccc2c1O[C@@H](CN(C)Cc1ccc(-c3ccccc3)cc1)[C@@H](C)CN([C@@H](C)CO)C2=O,/,5.1
Cc1ccc(S(=O)(=O)N(C)C[C@H]2Oc3ccc(NC(=O)c4ccncc4)cc3C(=O)N([C@H](C)CO)C[C@@H]2C)cc1,-0.2,-1.9
COc1ccccc1N(CC(O)CN1CCOCC1)S(=O)(=O)c1ccc(C)cc1 (stereo unspecified),-0.2,2.8
COc1cc(C(=O)Nc2c(C(=O)c3ccccc3)oc3ccccc23)cc(OC)c1OC,/,3.2
S=C(NCC1CC1)Nc1ccc2[nH]ccc2c1,0.0,-1.2
C[C@@H]1CN([C@H](C)CO)C(=O)c2cccc(NC(=O)Nc3ccc(C(F)(F)F)cc3)c2O[C@@H]1CN(C)C(=O)NC1CCCCC1,/,0.6
Cc1[nH]n(-c2ccccc2)c(=O)c1C=Nc1ccc(S(=O)(=O)N=C(N)N)cc1,-0.1,3.8
C[C@H](CO)N1C[C@H](C)[C@H](CN(C)C(=O)Nc2ccc3c(c2)OCO3)Oc2ccc(NC(=O)Cc3ccccc3)cc2C1=O,0.3,-1.7
S=c1nc(-c2ccco2)n(Cc2ccccc2)c(=S)n1C(=NCc1ccccc1)c1ccco1,0.6,2.2
COc1ccc(NC(=O)Nc2cccc3c2O[C@H](CN(C)CC2CCCCC2)[C@@H](C)CN([C@@H](C)CO)C3=O)cc1,/,-10
C=C(C)C(=O)Nc1ccc(Oc2ccccc2F)nc1,0.8,-0.9
COc1ccc(S(=O)(=O)Nc2ccc3c(c2)C(=O)N([C@@H](C)CO)C[C@H](C)[C@H](CN(C)C(=O)NC2CCCCC2)O3)cc1,-0.3,-4.9
C[C@@H]1CN([C@@H](C)CO)C(=O)c2cccc(NC(=O)C3CCCCC3)c2O[C@H]1CN(C)Cc1ccc(Oc2ccccc2)cc1,/,1.1
CNC[C@H]1Oc2ccc(NS(C)(=O)=O)cc2C(=O)N([C@@H](C)CO)C[C@@H]1C,0.5,5.0
CCOC(=O)c1ccccc1NC(=O)C12CC3CC(CC(C3)C1)C2,0.0,1.7
C[C@H]1CN([C@@H](C)CO)C(=O)c2cc(NC(=O)Nc3ccc(C(F)(F)F)cc3)ccc2O[C@@H]1CN(C)Cc1ccc(C(=O)Nc2ccccc2N)cc1,/,3.6
COc1ccc(C(=O)NCCn2cc(SCC(=O)Nc3ccccc3)c3ccccc32)cc1,1.3,0.0
CNC[C@@H]1Oc2c(NC(=O)Nc3ccccc3)cccc2C(=O)N([C@@H](C)CO)C[C@H]1C,/,3.2
C[C@H]1CN([C@@H](C)CO)C(=O)c2cc(NS(=O)(=O)c3ccc(Cl)cc3)ccc2O[C@@H]1CN(C)C(=O)NC1CCCCC1,0.4,-3.0

# Compound activity from PubChem.
